High-throughput results (PubChem BioAssay)
PrP UTR inh: inhibition of PrP 5' UTR reporter expression | cell-based PrP 5' UTR mRNA reporter, plate reader | inhibition, % (test concentration not listed) | 340,000 tested, 0.35% active | AID 488862;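 active = every replicate at 50% or more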;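 note: 0 = median of the neutral control wells; tested in H4 reporter cells; numbers are from one replicate; inactives centre near -14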
RN4220 kill: kills Staphylococcus aureus RN4220; S. aureus RN4220 growth, OD600, 16 h; inhibition, % (no concentration beside the values); 330,000 tested, 0.33% active; AID 1259311;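 active = z-score of -3 or lower and OD600 up to 0.18 on both plates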;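 note: plate controls were untreated cells for no effect and reference antibiotic for full effect; stock transfer was 100 nL into about 80 µL; one replicate is shown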
Bead autofluor: flagged as autofluorescent in microsphere protease counterscreen. compound autofluorescence counterscreen, microsphere flow cytometry; active compounds read high. fluorescence intensity (test concentration not listed). 360,000 tested, 3.1% active;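 active = at least 3 SD above the mean of all compounds, about 16000 in these data; inconclusive = too few beads counted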;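 note: 100 nL of 1 mM stock went into each well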
Mtb hypoxia inh: reduces hypoxia-regulated biosensor signal in M. tuberculosis. fluorescence inhibition, % (test concentration not listed). 300,000 tested, 0.1% active. M. tuberculosis hypoxia-regulated fluorescent reporter, fluorescence;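 active = 35 to 45% if threefold the growth effect, above 45% if 1.5-fold the growth effect; inactive = the rest, general growth blockers included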;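 note: wells of about 50 µL received 100 nL stock; 0% = vehicle wells and 100% = reference inhibitor wells; whole bacteria with a GFP reporter of the hypoxia response; strong numbers were not always called active; many hits fall short of the cut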
ugtP null kill: growth inhibition of S. aureus ugtP deletion strain. S. aureus RN4220 ugtP deletion, OD600 growth, 16 h; some inactives read as strong as hits. growth inhibition, % (no concentration beside the values). 330,000 tested, 0.54% active. AID 1259309;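 active = z-score under -3 and OD600 up to 0.15 on both plates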;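 note: plate controls were untreated wells for no effect and antibiotic for full effect; wells of about 80 µL received 100 nL stock; the first replicate is given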
BJeLR viability: BJeLR cell viability loss | BJeLR (HRASV12) viability, CellTiter-Glo ATP luminescence, 48 h; reference of the scale not given here | inhibition, % (concentration not given with the values) | 300,000 tested, 0.17% active;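 active = replicate mean above 50%; inconclusive = above 50% but judged a plate artefact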;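 note: 50 nL library stock added to about 25 µL; numbers are from one replicate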
Mtb hypoxia inh growth: second read-out of Mtb hypoxia inh, no call of its own (marks repeat the call); growth inhibition, %; measured here: M. tuberculosis growth (absorbance);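 0% = vehicle and 100% = reference antibiotic; read after six days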
* marks the source's active call; other numbers are inactive results; u = inconclusive; x = not tested or not shown; & = joins results of further samples.

1. Cc1nn(C)c(C(=O)NC(=S)Nc2ccc([N+](=O)[O-])cc2)c1Cl
2. CCCCNC(=O)c1sc2nc(C)cc(COC)c2c1-n1cccc1
3. O=C(COC(=O)/C=C/c1ccc(C(F)(F)F)cc1)NCc1ccco1
4. CCc1c(C)nc(N2CCN(c3ccc(F)cc3)CC2)[nH]c1=O
5. COc1cc2c(cc1NC(=O)CN(C)Cc1ccc(OC)c(OC)c1)oc1ccccc12
6. Cc1nc(SCC(=O)N(CC(C)C)C2CCS(=O)(=O)C2)c(C#N)c(C)c1C (stereo unspecified)
7. CCOc1ccc(N(CC(=O)N/N=C/c2ccc(OC(C)C)cc2)S(C)(=O)=O)cc1
8. Cc1ccc(NC(=O)CSc2nnc(CCNC(=O)OC(C)(C)C)o2)c(C)c1
9. Cc1ccc(N2C(=O)C3C(C(=O)c4ccccc4)=NN(c4ccccc4)C3C2=O)cc1 (stereo unspecified)
10. O=C1CC(c2ccc(O)cc2)Oc2cc(O)cc(O)c21 (stereo unspecified)
screen / no.,1,2,3,4,5,6,7,8,9,10
PrP UTR inh,-18.6,-5.7,-22.0,-12.5,-29.0,-35.4,-10.8,6.7,4.2,-20.4
RN4220 kill,28.1,-2.4,-0.7,1.6,-1.5,3.7,x,0.9,x,6.4&9.5
Bead autofluor,u,16799*,5057,3805,2164,6039,2394,9877,2106,5749
Mtb hypoxia inh,2.6,-2.6,-0.4,-6.2,-17.0,-4.7,x,4.5,x,2.7&5.4
Mtb hypoxia inh growth,15.1,7.9,3.4,-6.4,9.6,1.5,x,8.6,x,8.6&0.3
ugtP null kill,-9.1,-5.0,-0.2,6.0,-27.7,2.7,x,-0.8,x,-8.5&9.6
BJeLR viability,-1.1,-5.9,8.3,0.3,-0.5,x,3.1,5.3,-2.1,-5.7

11. Cc1ccc(CN2CCN(N=C/C(Br)=C\c3ccccc3)CC2)cc1
12. CN(C(=O)c1ccco1)c1nc2c(s1)CCCC2
13. CCOC(=O)Nc1c(C(=O)OC)[nH]c2cccc(OC)c12
14. Cc1[nH]nc2c1-c1nc3ccccc3nc1C(C)(C)C2
15. Cc1ccccc1NC(=O)c1ccc2c(c1)OCCO2
16. CN(C)C1=NC(N(C)C)=NP(N(C)C)(N(C)C)=N1
17. CCOC(=O)C[n+]1ccc2c([nH]c3ccccc32)c1C
18. CCC(C)c1ccccc1NC(=O)COc1ccc(-c2nnco2)cc1 (stereo unspecified)
19. NC(=O)COc1ccc(C(=O)NCC2(N3CCOCC3)CCCCC2)cc1
20. COc1ccccc1-c1ccc(/C=C2/C=C(C)OC2=O)o1
screen / no.,11,12,13,14,15,16,17,18,19,20
PrP UTR inh,x,-46.2,-1.8,0.7,-48.4,-18.6,-18.0,-5.4,-25.5,-24.1
RN4220 kill,0.9,18.9,-8.0,-2.9,-8.8,4.0,-0.6,3.5,0.1,16.0
Bead autofluor,x,3542,2878,5127,2633,4011,4489,5424,6328,2591
Mtb hypoxia inh,-4.8,x,4.1,5.7,22.1,2.2,0.7,-4.0,0.4,11.8
Mtb hypoxia inh growth,-6.0,x,6.6,-3.9,9.4,5.3,4.7,4.9,7.6,-1.6
ugtP null kill,15.5,-9.1,-3.7,2.9,-5.5,5.9,13.6,0.7,0.8,2.7
BJeLR viability,x,6.2,3.3,1.9,10.7,-7.7,-0.2,x,x,3.8

21. O=C(NCc1ccccc1)c1onc(CSc2ccncc2)c1C(=O)NCc1ccccc1
22. O=C(CC1C(=O)NCCN1Cc1ccc(-c2ccccc2)cc1)NCc1ccccc1 (stereo unspecified)
23. CC(C)(C)c1nnc(N/N=C/c2ccc(Br)cc2)n(N)c1=O
24. CSc1ccccc1Nc1ncnc(N)n1
25. COc1cccc(NC(=O)Nc2cccn(Cc3ccccc3)c2=O)c1
26. COc1ccccc1NC(=O)c1cnc(SCC(=O)NCC2CCCO2)n(C)c1=O (stereo unspecified)
27. CN(C)C(=O)c1cc(C(=O)c2ccccc2Cl)c[nH]1
28. Cc1ccc2cc(/C=N/NC(=O)c3ccccc3O)c(Cl)nc2c1
29. CC(C)c1ccc(NC(=O)COC(=O)c2ccc(CN3CCCC3=O)cc2)cc1
30. CCN(CC)c1ccc(NC(=O)CSc2n[nH]c(-c3ccco3)n2)cc1
screen / no.,21,22,23,24,25,26,27,28,29,30
PrP UTR inh,-13.0,-29.7,-27.7,-28.4,16.4,-19.4,-15.9,-13.8,-3.2,-14.6
RN4220 kill,2.5,3.6,x,2.5,-3.1,-1.2,2.0,x,1.9,2.5
Bead autofluor,4304,4585,2125,6158,4167,5732,4601,2395,3755,u
Mtb hypoxia inh,0.8,-1.5,x,-3.7,12.2,8.1,0.5,x,-10.2,0.4
Mtb hypoxia inh growth,14.2,0.0,x,-5.0,12.5,14.7,3.0,x,10.5,3.4
ugtP null kill,1.3,-2.6,x,1.0,0.4,-2.6,4.1,x,-4.9,10.5
BJeLR viability,6.0,-16.5,5.1,4.6,0.1,12.1,4.0,2.1,x,-6.4

31. CCCC(=O)Nc1nc(-c2ccccc2)ns1
32. COc1ccc(NC(=O)C2CCCN(S(=O)(=O)c3c(C)[nH]c(=O)[nH]c3=O)C2)cc1Cl (stereo unspecified)
33. COc1cc(CN2CCNC(=O)C2CC(=O)NCc2csc(C(C)C)n2)cc(OC)c1 (stereo unspecified)
34. Cc1ccc(OCC(=O)NNC(=O)Cc2ccc(S(=O)(=O)N3CCOCC3)s2)cc1
35. CC(C)CNC(=O)CSc1nnc(-c2ccccn2)n1Cc1ccccc1
36. O=C(c1cc(-c2ccc(F)cc2)nc2ccccc12)N1CCC1
37. Nc1ccc(SCCN2C(=O)c3ccccc3C2=O)cc1
38. CCOC(=O)CC1C(=O)NCCN1C(=S)NC(=O)c1ccccc1OC (stereo unspecified)
39. CCOC(=O)[C@@H]1[C@H]2COc3ccccc3[C@@H]2N2C(=O)N(c3cccc(F)c3)C(=O)[C@]12C
40. COC(=O)[C@@H]1C[C@@H]2CC[C@@H](O)C[C@@H]2N1Cc1ccccc1OS(=O)(=O)c1ccc(C)cc1
screen / no.,31,32,33,34,35,36,37,38,39,40
PrP UTR inh,-98.8,-9.8,-22.5,-14.9,-17.0,-8.2,-21.2,-1.9,-10.4,-15.9
RN4220 kill,5.0,6.3,1.5,-3.7,-0.8,1.8,2.6,-1.3,x,x
Bead autofluor,2564,4675,4727,5256,4290,4045,19898*,4615,2739,7530
Mtb hypoxia inh,12.7,-3.7,-5.8,-2.8,x,-11.6,7.8,-5.1,x,x
Mtb hypoxia inh growth,-1.8,2.7,-6.9,-4.4,x,8.0,15.1,-1.6,x,x
ugtP null kill,5.6,14.1,5.0,-5.9,-0.1,-0.1,-0.8,-4.1,x,x
BJeLR viability,-1.9,5.3,-10.1,7.5,-8.4,x,5.7,14.1,2.0,2.5

41. CCC(=O)Oc1cccc(C(=O)Nc2ccc(-c3nnc(-c4ccco4)o3)cc2)c1
42. CCCOc1cccc(C2/C(=C(/O)c3ccc(F)cc3)C(=O)C(=O)N2CCN(C)C)c1 (stereo unspecified)
43. CCS(=O)(=O)CCSc1nc2ccccc2s1
44. FC(F)(F)c1ccc(Cl)c(-n2c(-c3ccco3)n[nH]c2=S)c1
45. c1cc(-c2nnc3n2CCCCC3)ccn1
46. O=C1c2ccccc2S(=O)(=O)c2cc(N3CCN(c4ccccc4)CC3)ccc21
47. CCOc1cc(C=NNC(=O)CSc2cccc3cccnc23)ccc1O
48. O=C1CCCC(NCCCCCCNC2=C([N+](=O)[O-])C(=O)CCC2)=C1[N+](=O)[O-]
49. CCOC(=O)/C=C1\CN(Cc2cc(OC)c(OC)c(OC)c2)S(=O)(=O)c2ccccc21
50. Cc1ccc(NC(=O)Cn2c(O)c(N=NC(=O)c3ccncc3)c3ccccc32)cc1
screen / no.,41,42,43,44,45,46,47,48,49,50
PrP UTR inh,-124.3,-10.3,-23.1,-29.4,-23.0,x,x,-27.8,-11.7,-14.8
RN4220 kill,-2.9,2.9,-11.6,1.3,6.0,10.2,-0.2,2.3,x,2.1
Bead autofluor,3264,4374,3393,3884,8058,x,x,4286,2907,4878
Mtb hypoxia inh,4.5,x,15.7,2.1,-4.3,3.0,9.7,0.5,x,-1.6
Mtb hypoxia inh growth,5.2,x,5.2,-3.9,5.3,1.7,-0.5,5.5,x,-3.3
ugtP null kill,-13.5,-1.0,-1.4,-1.0,-4.9,4.3,2.4,3.6,x,-1.2
BJeLR viability,-10.2,4.8,-1.7,-0.4,2.3,-3.8,x,x,-0.1,9.1

51. Cc1c(O)c(=O)n(-c2ccccc2)n1C
52. Cc1ccccc1-n1c(=O)cc(N2CCc3ccccc3C2)[nH]c1=O
53. COc1ccc(NC(=O)NC2CC3CCCC(C2)N3Cc2ccccc2)cc1 (stereo unspecified)
54. CCOC(=O)c1nn(-c2ccc(C)cc2)c(=O)cc1OCC(=O)N1CCN(c2ccccc2)CC1
55. CC(=O)c1ccc2c(c1)N(C)c1ccccc1S2
56. CC(C)Cn1c(N)c(C(=O)COC(=O)c2ccccc2C(=O)c2ccccc2)c(=O)n(C)c1=O
57. Cc1ccc(NC(=O)C2CCCN2C(=O)NC2CCCCC2)c(C)c1 (stereo unspecified)
58. CC(C)CC(=O)Nc1ccc(C(=O)NN2C(=O)c3ccccc3C2=O)cc1
59. CCCC/C=C1\CCc2c([nH]c3ccccc23)C1=O
60. COC(=O)c1c(NC(=O)CSc2nnc(C)c(=O)[nH]2)sc(C)c1C
61. Cc1[nH]c2ccccc2c1C(=O)C(=O)N1CCCc2ccccc21
screen / no.,51,52,53,54,55,56,57,58,59,60,61
PrP UTR inh,-2.7,-14.9,-29.2,-8.0,-3.3,-16.6,-19.7,-25.4,-28.3,-3.1,-14.0
RN4220 kill,2.2,2.8,0.9,3.0,16.0,8.1,4.9,x,4.2,8.9,1.8
Bead autofluor,5615,19487*,4363,5226,6352,3690,9830,1966,4036,4803,2510
Mtb hypoxia inh,1.8,-9.5,0.2,9.9,-3.9,-3.8,1.8,x,9.8,1.6,10.1
Mtb hypoxia inh growth,12.3,14.4,-1.0,-6.9,2.2,4.8,4.8,x,0.6,-0.2,4.9
ugtP null kill,1.5,3.1,2.7,3.7,-1.9,0.4,-0.8,x,5.6,-1.8,-8.6
BJeLR viability,x,8.3,-3.2,1.7,3.5,x,-9.8,-0.5,6.5,-3.8,7.5

Part of the list above in order of number of heavy atoms, ascending.
55. CC(=O)c1ccc2c(c1)N(C)c1ccccc1S2
59. CCCC/C=C1\CCc2c([nH]c3ccccc23)C1=O
61. Cc1[nH]c2ccccc2c1C(=O)C(=O)N1CCCc2ccccc21
52. Cc1ccccc1-n1c(=O)cc(N2CCc3ccccc3C2)[nH]c1=O
58. CC(C)CC(=O)Nc1ccc(C(=O)NN2C(=O)c3ccccc3C2=O)cc1
53. COc1ccc(NC(=O)NC2CC3CCCC(C2)N3Cc2ccccc2)cc1 (stereo unspecified)
50. Cc1ccc(NC(=O)Cn2c(O)c(N=NC(=O)c3ccncc3)c3ccccc32)cc1
56. CC(C)Cn1c(N)c(C(=O)COC(=O)c2ccccc2C(=O)c2ccccc2)c(=O)n(C)c1=O
54. CCOC(=O)c1nn(-c2ccc(C)cc2)c(=O)cc1OCC(=O)N1CCN(c2ccccc2)CC1
screen / no.,55,59,61,52,58,53,50,56,54
PrP UTR inh,-3.3,-28.3,-14.0,-14.9,-25.4,-29.2,-14.8,-16.6,-8.0
RN4220 kill,16.0,4.2,1.8,2.8,x,0.9,2.1,8.1,3.0
Bead autofluor,6352,4036,2510,19487*,1966,4363,4878,3690,5226
Mtb hypoxia inh,-3.9,9.8,10.1,-9.5,x,0.2,-1.6,-3.8,9.9
Mtb hypoxia inh growth,2.2,0.6,4.9,14.4,x,-1.0,-3.3,4.8,-6.9
ugtP null kill,-1.9,5.6,-8.6,3.1,x,2.7,-1.2,0.4,3.7
BJeLR viability,3.5,6.5,7.5,8.3,-0.5,-3.2,9.1,x,1.7
